Compound activity from PubChem BioAssay.
VACV Venus inh: vaccinia inhibition (Venus reporter) | AID 720580 | Potency, µM (top dose mostly 36.5 µM), inactives show top-dose activity change, negative = inhibition, usual class: inhibitors | 330,000 compounds, 0.46% hits | Vaccinia virus Venus reporter expression, fluorescence; active means well fitted inhibition curve with a large enough effect; inconclusive means small, poorly fitted or top-dose-only effect; inactive means no such curve, though single readings can be large or run the other way; tested in A549 cells; also: nearly all actives have a fitted effect of over 30% in size; inactives centre near -10
Vaccinia mCherry: inhibitors of vaccinia virus infection (mCherry reporter signal); AID 720579; Potency, µM (doses to about 36.5 µM), inactives show top-dose activity change, negative = inhibition, most hits filed as inhibitors; 310,000 compounds, 0.63% hits; Vaccinia virus mCherry reporter infection, fluorescence; about a quarter of the inactives have no number; active = well fitted inhibition curve with a large enough effect; inconclusive = small, poorly fitted or top-dose-only effect; inactive = no such curve, though single readings can be large or run the other way; tested in A549 cells; also: nearly all actives have a fitted effect of over 35% in size; inactives centre near -10
* marks the source's active call; other numbers are inactive results; i = inactive; ? = inconclusive; nt = not tested or not shown; & = joins results of further samples. % is scaled to controls: 0 for no effect and ±100 for the full control effect; potency is read from the fitted curve at half-maximal effect.

SMILES	VACV Venus inh	Vaccinia mCherry
CCCC(=O)C1=C(O)C(C(=O)OC)C(C)(C)CC1=NCCc1ccc(OC)c(OC)c1 (configuration not stated)	-6%	-1%
Cc1cc(C)c(NC(=O)CNC(=O)COC(=O)CNC(=O)c2ccc(Cl)cc2Cl)c(C)c1	-9%	-13%
CCOc1ccccc1Nc1sc(C(=O)c2ccc(Cl)cc2)c(N)c1C(=O)NCCc1ccccc1	-7%	-16%
CCOCc1c(C(=O)N2CCN(CC(=O)Nc3ccc(F)cc3)CC2)oc2ccccc12	-14%	-17%
COc1cccc2[nH]c(C(=O)NCCc3ccccc3)cc12	-14%	-5%
COc1ccc(CNC(=O)COC(=O)CN2C(=O)C3CC=CCC3C2=O)cc1 (configuration not stated)	-12%	-8%
COC(=O)C(C)Sc1ccc2nnc(CCNS(=O)(=O)c3ccc(C)cc3)n2n1 (configuration not stated)	-9%&-5%	-13%
c1cc2c(cc1N1CCCCC1)C1CC2CCN1 (configuration not stated)	-15%	?
CC(O)[C@H]1CN=C(N)N1CC(C)(C)C (some centres not stated)	2%	i
COCCCNc1nc2c(S(=O)(=O)c3ccc(C)c(C)c3)nnn2c2ccc(Cl)cc12	-18%	-25%
COc1ccc(CN2C(=O)C(CC(=O)NC3CCCCC3)CC(C(=O)N3CCOCC3)=C2C)cc1 (configuration not stated)	-14%	5%
COc1ccc(-c2nnc(NC(=O)CSc3ccc(Cl)cc3)s2)cc1OC	-13%	-16%
CCOC(=O)C(NCc1ccccc1)(NC(=O)c1ccccc1)C(F)(F)F (configuration not stated)	-17%	i
O=C(Nc1ccc(F)cc1F)c1ccc2c(c1)OCCO2	0%	-6%
CCOC(=O)c1cc(-c2ccccc2)n(CC(=O)NC2CCC(C)CC2)c1C (configuration not stated)	-12%	-16%
COc1cccc(N=C2NC(=O)/C(=C/c3cc([N+](=O)[O-])ccc3O)S2)c1	6%	-13%
CC1(C)c2ccccc2N2CC(=O)N[C@@]21/C=C/C=C/c1ccccc1	-16%	-23%
CC(=O)N1CCN(CC(=O)Nc2ccc(SC(F)F)cc2)CC1	-15%	-19%
COC(=O)C1=C2SC(C)C(=O)N2C(N)=C(C#N)C1c1cc(OC)c(OC)c(OC)c1 (configuration not stated)	-2%	i
CC(C)Oc1ccc(CN2CCCC(CO)(Cc3ccccc3)C2)cc1CO (configuration not stated)	-9%	-26%
Cc1ccc(C(=O)OCC(=O)NCc2ccco2)s1	4%	i
COC(=O)COc1ccccc1/C=C1/NC(=O)NC1=O	-18%	-13%
Cc1cc(Br)ccc1NC(=O)CN1C(=O)c2cccnc2Sc2ccccc21	-10%	-10%
O=C(/C=C/c1ccccc1)OCc1cncs1	-7%	-1%
Cc1nc2ncnn2c(C)c1CCC(=O)NCc1cccc(Cl)c1	1%	9%
O=C(NCC(c1ccco1)N1CCc2ccccc21)c1ccccc1Br (configuration not stated)	-12%	i
O=C(CNC(=O)Cc1ccccc1)NCC(=O)OCC(=O)c1ccc(F)cc1	-5%	-6%
COc1cc(CNc2ccc(CNc3ncn[nH]3)cc2)ccc1OCc1ccccc1	-28%	?
CCCCN(C(=O)CSc1nnc(-c2ccc(OC)cc2)n1C(C)C)c1c(N)n(Cc2ccccc2)c(=O)[nH]c1=O	?	-28%
COc1ccc(S(=O)(=O)n2ccc(C)n2)cc1C	-11%	-15%
Cc1ccc(S(=O)(=O)NC(=O)Nc2c(C)cccc2C)cc1	-14%	i
COc1ccc(OC)c(C(c2nnnn2CC2CCCO2)N2CCN(C3CCCC3)CC2)c1 (configuration not stated)	-8%	nt
COc1cccc(-c2nc3c(c(SCc4ccccc4)n2)Cc2c(CO)cnc(C)c2O3)c1	-2%	-9%
CCC(=O)N1CCN(c2ccc(NC(=O)COc3ccc(C)cc3C)cc2)CC1	-5%	-12%
O=C(COC(=O)c1c2c(nc3ccccc13)/C(=C/c1cccc([N+](=O)[O-])c1)CCC2)NC1CCS(=O)(=O)C1 (configuration not stated)	?	?
O=C(c1ccccn1)N(Cc1ccco1)C1(C(=O)NC2CCCC2)CCCCC1	-3%	-4%
CCCCN(C(=O)c1ccc2c(c1)OCO2)c1c(N)n(CCCC)c(=O)[nH]c1=O	-4%	-13%
CC(C)CC1NC(=O)N(CC(=O)NC2CCCc3ccccc32)C1=O (configuration not stated)	-9%	i
CCCOC(=O)c1ccc(Nc2nc3ccccc3nc2-n2nc(C)cc2C)cc1	0%	-9%
COc1ccccc1N1CCN(C(=O)CNC(=O)c2ccc(Cl)cc2Cl)CC1	-4%	-10%
COc1ccc(NC(=O)CN(c2ccccc2OC)S(C)(=O)=O)c(OC)c1	5%	0%
CCN(CC)S(=O)(=O)c1ccc(N(C)Cc2cccc(OC)c2OC)nc1	-20%	-24%
COc1cccc(CN(C)CCCn2ccc(NC(=O)OCc3ccccc3)nc2=O)c1	-19%	-23%
Cc1ccc(CSc2nc3c(c(=O)[nH]c(=O)n3C)n2CCC(C)C)cc1	?	?
S=c1[nH]nc(Cc2cccs2)n1-c1ccccc1	-1%	-12%
CCCCNC(=O)c1[nH]c2ccccc2c1Sc1ccc(C)cc1	-8%	-9%
Cc1ccc(CS(=O)Cc2ccc(C(=O)N3CCOCC3)o2)cc1 (configuration not stated)	-11%	i
O=C(Nc1ccc2oc(=O)c(C(=O)O)cc2c1)Oc1ccccc1	0%	-5%
COC(=O)CCC(=O)NNC(=O)c1ccc(Cl)cc1Cl	-2%	-13%
CCCCC1C2=C(CCCC2=O)OC2=C1C(=O)CCC2	-8%	-24%
Nc1cc(=O)[nH]c(SCC(=O)Nc2ccc(Oc3ccccc3)cc2)n1	-3%	i
COc1ccc(-n2nc3c(c2NC(=O)c2c(F)cccc2Cl)CS(=O)C3)cc1 (configuration not stated)	-6%	i
NC(=O)c1ccc(-n2c(CCC(=O)O)ccc2-c2cccs2)cc1	5%	-14%
Cc1ccc(Cl)c(OCC(O)CN(CCO)CCO)c1 (configuration not stated)	-7%	-18%
Cc1cccc(OCCNc2nc3c(c(=O)n(C)c(=O)n3C)n2C)c1	-15%	nt
CCOC(=O)c1sc(Nc2ccc(Br)cc2)nc1C	-17%	-4%
CC1(C(=O)Nc2cccc(OC(F)(F)F)c2)Cc2c(-c3ccc4c(c3)OCO4)ccnc2O1 (configuration not stated)	-17%	-14%
Cc1ccc(-c2ccc(C(=O)O)c(C)n2)cc1	1%	-10%
Cn1nnnc1SCCNC(=O)C1CCC(=O)N(Cc2ccc(Cl)cc2)C1 (configuration not stated)	-5%	-4%
CCC(=O)N1CCN(c2ccc(Cl)cc2NC(=O)Cc2ccc(Cl)cc2)CC1	-12%	-22%

Next section.
SMILES	VACV Venus inh	Vaccinia mCherry
CCOC(=O)Cc1csc(SCC(=O)Nc2cccc(Cl)c2)n1	-9%	nt
CC(C)(C)OC(=O)N1CCC(c2c(C(=O)NCCN3CCc4ccccc4C3)cnn2-c2ccc(F)cc2)CC1	-15%	-19%
CC(NC(=O)COC(=O)c1cc(Cl)nc(Cl)c1)c1ccccc1 (configuration not stated)	-6%	-14%
CCOC(=O)c1c(C)[nH]c(C(=O)N(C)CC(=O)Nc2ccc(OCC)c(OCC)c2)c1C	-17%	-8%
COc1ccc([C@H]2[C@@H]3C=CCC[C@@]3(C)C(=O)N2Cc2ccccc2)cc1Cl	-27%	-11%
Cc1cc(C)cc(N(C(=O)Cc2cccs2)C(C(=O)NC2CCCC2)c2ccc(C)o2)c1 (configuration not stated)	4%	-9%
CCc1ccccc1NC(=O)CN(C)C(=O)CN1C(=O)NC2(CCCCCC2)C1=O	-3%	-14%
O=C(c1ccc(C23CC4CC(CC(C4)C2)C3)o1)N1CCOCC1	-14%	-5%
CS(=O)(=O)N(CC(=O)N1CCN(c2cccc(Cl)c2)CC1)c1ccccc1	-10%	?
CCCCSc1nnc2[nH]c(=O)cc(C)n12	-9%	i
Cc1ccc(N2CC(C(=O)NCc3n[nH]c(=O)c4ccccc34)CC2=O)cc1C (configuration not stated)	-28%	-2%
CC1(C(=O)NS(=O)(=O)c2ccc(Cl)s2)CCN1C(=O)C1(c2ccc(Cl)cc2)CCC1 (configuration not stated)	-4%	0%
O=c1[nH]c(=O)n(C2OC(CO)C(O)C2O)cc1N1CCOCC1 (configuration not stated)	-9%	i
COc1ccc(N(CC(=O)NCc2ccc(Cl)cc2)S(=O)(=O)c2ccccc2[N+](=O)[O-])c(OC)c1	-27%	i
Cn1c2ccccc2c(=O)c2ccc(NCCc3cccs3)cc21	?	-28%
CCOC(=O)C1=C(N)Oc2c(oc(CO)cc2=O)C1c1ccc(F)c(F)c1 (configuration not stated)	-9%	-9%
OC(c1ccccc1)c1ncc(-c2ccc(C(F)(F)F)cc2)[nH]1 (configuration not stated)	-26%	4%
Cc1ccc(S(=O)(=O)Nc2cccc(-c3cn4cccc(C)c4n3)c2)cc1	-12%	-6%
O=C(NC1=NCCS1)c1ccccc1F	-1%	i
COc1cccc(OCCCN2CCCCCC2)c1	-5%	0%
Cc1ccc(C(=O)O)cc1Nc1nc2ccccc2n2nnnc12	4%	-11%
CCCn1nnc(NC(=O)COc2cc(C)ccc2C(C)C)n1	-9%	-12%
CCOc1ccc(C(=O)NCC2OCCc3ccccc32)cc1 (configuration not stated)	-8%	-9%
Cc1ccc(OC(=O)c2cc(-c3ccc4c(c3)OCCO4)on2)c(C)c1	-5%	-3%
COc1cc(C(=O)Nc2ccc([N+](=O)[O-])cn2)cc(OC)c1OC	-4%	i
CC(=O)c1cnn(-c2ccccc2)c1C	-9%	10%
CCOc1cc(/C=C/C(=O)O)ccc1OCCOc1ccc(F)cc1	-6%	-1%
N#CCCn1nc2c(c1N)CCC2	-11%	i
COCCNC(=O)C/C(C)=N/NC(=O)C(=O)NC1CCCCC1	3%	0%
O=C(NCCOc1nc(N2CCCCC2)nc(N2CCOCC2)n1)Nc1ccccc1	-14%	-13%

Whole records, quoted from the list.
Record of Cc1cc(C)c(NC(=O)CNC(=O)COC(=O)CNC(=O)c2ccc(Cl)cc2Cl)c(C)c1 = VACV Venus inh: -9%; Vaccinia mCherry: -13%
Record of CCOCc1c(C(=O)N2CCN(CC(=O)Nc3ccc(F)cc3)CC2)oc2ccccc12 = VACV Venus inh: -14%; Vaccinia mCherry: -17%
Record of CC1(C(=O)NS(=O)(=O)c2ccc(Cl)s2)CCN1C(=O)C1(c2ccc(Cl)cc2)CCC1 (configuration not stated) = VACV Venus inh: -4%; Vaccinia mCherry: 0%

Additional results follow.
SMILES	VACV Venus inh	Vaccinia mCherry
O=C(NCC1CCCO1)c1onc(CSc2ccccc2F)c1C(=O)O (configuration not stated)	-12%	i
CN(C)c1ccc(CNC(=O)C2CCN(c3nc4ccccc4[nH]3)CC2)cc1	-9%	-18%
CNC(=S)N1CCc2cc(OC)c(OC)cc2C1COc1ccc(F)cc1 (configuration not stated)	-10%	-9%
CCCCOc1ccc(Nc2cc(Cl)ccc2C(=O)O)cn1	-3%	-10%
Cc1ccc(N(CC2CO2)S(=O)(=O)c2ccc([N+](=O)[O-])cc2)cc1 (configuration not stated)	-7%	-16%
Cc1ccc(N=Nc2c(C)[nH]n(-c3ccccc3)c2=O)c(C)c1	2%	i
O=c1c2cc3c(cc2[nH]c(=S)n1C1CCN(Cc2ccccc2)CC1)OCO3	-1%	i
CCC1(C(=O)c2ccccc2)C(c2cccc([N+](=O)[O-])c2)C1(C(=O)OC)C(=O)OC (configuration not stated)	-6%	i
Cc1cccc(OC(=O)CSc2nnc(-c3ccc4c(c3)OCO4)o2)c1C	-7%	-12%
CC(C)(C(=O)N1CCC1(C)C(=O)NS(=O)(=O)c1cccc(Cl)c1)c1ccccc1 (configuration not stated)	-11%	9%
O=C1C=C(O)c2cccc3cccc1c23	1%	?
CC(C)[C@@H](N)C(=O)N/N=C/c1ccc2nccnc2c1	-8%	-14%
C(=N\c1nccs1)/c1cccnc1	-27%	nt
c1ccc2c(c1)c1c3n2CCNC3CCC1 (configuration not stated)	2%	nt
COc1ccc(C2CC(=O)C(C=NCCO)=C(O)C2)cc1OC (configuration not stated)	3%	-5%

Part of the list above in order of molar mass, low to high.
SMILES	VACV Venus inh	Vaccinia mCherry
Cc1ccc(OC(=O)c2cc(-c3ccc4c(c3)OCCO4)on2)c(C)c1	-5%	-3%
O=C(CNC(=O)Cc1ccccc1)NCC(=O)OCC(=O)c1ccc(F)cc1	-5%	-6%
Cc1cc(Br)ccc1NC(=O)CN1C(=O)c2cccnc2Sc2ccccc21	-10%	-10%
CCCCN(C(=O)CSc1nnc(-c2ccc(OC)cc2)n1C(C)C)c1c(N)n(Cc2ccccc2)c(=O)[nH]c1=O	?	-28%

Following part.
SMILES	VACV Venus inh	Vaccinia mCherry
COc1cccc(CCC(=O)N2CCC(n3nccc3NC(=O)C3CCOC3)CC2)c1 (configuration not stated)	-19%	-12%
N#Cc1c(N)nc(SCC(=O)C23CC4CC(CC(C4)C2)C3)c(C#N)c1-c1ccc(Cl)cc1	1%	nt
C[C@@H]1CN([C@@H](C)CO)C(=O)c2cc(Br)cnc2O[C@@H]1CN(C)S(C)(=O)=O	-4%	-5%
Cc1cc(C)n(-c2nc3c(c(=O)n(C)c(=O)n3C)n2CCO)n1	-5%	i
COc1cc(C(=O)N2CCN(c3ccccc3OC)CC2)c([N+](=O)[O-])cc1OC	-28%	-29%
Cc1ccc(CNC(=O)c2cc(=O)c3cc(C)ccc3o2)cc1	-16%&1%	-15%&-3%
c1cncc(-c2nc3ccccc3o2)c1	-2%	nt

Part of the list above, with bars between the fields:
SMILES | VACV Venus inh | Vaccinia mCherry
CCCn1nnc(NC(=O)COc2cc(C)ccc2C(C)C)n1 | -9% | -12%
Cc1ccc(N=Nc2c(C)[nH]n(-c3ccccc3)c2=O)c(C)c1 | 2% | i
